From PubChem
RanGTP-Imp inh – inhibitors of RanGTP-importin-beta interaction, primary screen, biochemical, FRET, CFP-Ran, YFP-importin-beta, homogeneous | inhibition, % (no concentration beside the values) | cell-free CFP-Ran/YFP-importin-beta FRET ratio | 300,000 tested, 1.1% active;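 active = most replicates above 15%; inconclusive = exactly half above 15%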;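 also: 0% = DMSO wells and 100% = Ran loaded with GDP instead of GTP; wells of about 40 µL received 100 nL stock; the first replicate is given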
Ecoli growth – inhibitors of Escherichia coli growth; AID 1053175; 330,000 tested, 0.21% active; OD600, 23 h; active compounds read low; OD600 absorbance (test concentration not listed);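 active = OD600 absorbance below the run mean of sample wells minus 3.6 SD, in any replicate, cut at about 0.56 in these data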;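 also: stock transfer was 300 nL into about 60 µL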
Vif A3G – inhibitors of Vif binding to APOBEC3G peptide, primary screen, biochemical, TR-FRET, GST-Vif 1-94, biotin-A3G peptide, dose response retest (AID 1117319) | 260,000 tested, 0.57% active | inhibition, %, or IC50 in µM where a hit was titrated | TR-FRET GST-Vif / biotin-A3G peptide binding; higher % means a stronger effect; test concentration not given here; strong numbers were not always called active;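 active = above the screen mean plus three standard deviations and confirmed in dose response; inconclusive = results disagree or hit not tested in dose response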;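 also: Vif residues 1-94 fused to GST binding biotinylated APOBEC3G peptide 110-148; 0% = full assay without inhibitor and 100% = GST in place of GST-Vif; retest series ran down from 100 µM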
HNF4A DNA FP – change in binding of human HNF4 alpha to DNA; HNF4a-FITC DNA binding, fluorescence polarization, 1 h; activity change, % at 10 µM; 360,000 tested, 0.3% active; AID 1224865; in the data active = activity change above about 30%, passing the limit was not always enough;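 also: controls were the assay level and a saturating level of protein; the project sought stronger binding though the title names inhibitors; some compounds called inactive have numbers as strong as hits; positive values seem to mean higher polarization but the record does not say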
MLL AF4-AF9 inh – blocks AF4 peptide binding to human AF9; 350,000 tested, 0.47% active; AID 651704; inhibition, % at 10 µM; P42568; AlphaScreen, biotin-AF4 peptide binding to FLAG-AF9;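 active = every replicate reaching a set inhibition limit, whatever the replicate mean, cut at about 25% in these data; inconclusive = mean inhibition reaches that limit but some replicates miss it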;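 also: 0% = plate neutral control median and 100% = total signal loss; the record names both 10 and 1 µM as test concentration; the first replicate is given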
Target sequence (P42568 whole entry, looked up): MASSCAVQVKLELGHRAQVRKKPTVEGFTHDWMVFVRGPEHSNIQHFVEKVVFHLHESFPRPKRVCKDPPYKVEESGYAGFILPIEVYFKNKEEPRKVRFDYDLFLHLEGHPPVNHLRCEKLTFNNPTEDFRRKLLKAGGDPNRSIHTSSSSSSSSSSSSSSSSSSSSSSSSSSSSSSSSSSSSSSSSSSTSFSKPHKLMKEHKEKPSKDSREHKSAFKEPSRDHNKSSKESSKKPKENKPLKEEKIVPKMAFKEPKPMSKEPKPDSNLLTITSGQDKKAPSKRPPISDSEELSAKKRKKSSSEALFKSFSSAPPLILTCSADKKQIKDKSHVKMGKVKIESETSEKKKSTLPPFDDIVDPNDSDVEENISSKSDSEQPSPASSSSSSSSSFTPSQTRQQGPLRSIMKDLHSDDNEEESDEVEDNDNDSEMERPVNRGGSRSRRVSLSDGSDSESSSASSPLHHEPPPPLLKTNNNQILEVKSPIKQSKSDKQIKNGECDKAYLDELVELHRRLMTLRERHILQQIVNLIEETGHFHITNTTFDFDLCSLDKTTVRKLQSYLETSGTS
FGF22 binding – binders of recombinant human FGF22 by thermal shift | Q9HCT0 | calls only at 9.99 µM | SYPRO orange fluorescence; percent of sucrose octasulfate shift, DMSO zero | 340,000 tested, 1.5% active | AID 651658;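 active = melting point raised past a set limit in the mean and every replicate; inconclusive = no clear call; three in four hits are not shown here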
Target sequence (Q9HCT0 whole entry, looked up): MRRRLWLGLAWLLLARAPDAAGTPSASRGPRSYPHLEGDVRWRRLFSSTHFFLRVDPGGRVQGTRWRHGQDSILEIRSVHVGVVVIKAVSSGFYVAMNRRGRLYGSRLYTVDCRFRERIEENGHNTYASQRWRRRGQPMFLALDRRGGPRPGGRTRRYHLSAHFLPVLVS
UCH37 DUB inh – inhibitors of human deubiquitinating enzyme UCH37; Q9Y5K5; purified proteasome/UCH37, Ub-AMC cleavage fluorescence; inhibition, % (concentration not given with the values); 330,000 tested, 0.33% active;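 active = mean of two replicates above 20%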;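 also: 0% = compound-free wells with enzyme and 100% = wells lacking proteasome; stock transfer was 100 nL into about 20 µL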
Target sequence (Q9Y5K5 whole entry, looked up): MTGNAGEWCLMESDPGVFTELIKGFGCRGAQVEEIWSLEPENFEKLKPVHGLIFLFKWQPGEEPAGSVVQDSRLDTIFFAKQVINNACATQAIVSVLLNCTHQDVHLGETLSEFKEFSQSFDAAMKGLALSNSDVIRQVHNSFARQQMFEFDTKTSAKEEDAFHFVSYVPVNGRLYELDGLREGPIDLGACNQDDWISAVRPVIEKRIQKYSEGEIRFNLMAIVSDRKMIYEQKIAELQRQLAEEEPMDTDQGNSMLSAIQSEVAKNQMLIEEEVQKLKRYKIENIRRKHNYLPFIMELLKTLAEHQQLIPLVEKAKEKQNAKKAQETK
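Material: Human UCH37 enzyme supplied as purified proteasome complex | Schedule: 30 min compound-proteasome preincubation then 25 min substrate reaction, room temperature | Detection: AMC fluorescence from Ub-AMC cleavage, excitation 355 nm, emission 460 nm | Benchmarks: Wells without proteasome as full block, compound-free enzyme plus substrate as uninhibited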
Active calls of the source: *; i = inactive; ? = inconclusive; . = not tested or not shown; + = active, no number; & = joins results of further samples. Not all compounds are listed; count on the stated rates, not on these rows.

entry	SMILES	RanGTP-Imp inh	Ecoli growth	Vif A3G	HNF4A DNA FP	MLL AF4-AF9 inh	FGF22 binding	UCH37 DUB inh
1	O=C1NC(=Nc2ccccc2)S/C1=C\C=C\c1ccco1	-2.9	0.685	.	12.6	0.9	i	5.4
2	Cc1nc(OCC(C)C)c2sc3nc4c(cc3c2n1)COC(C)(C)C4	?	0.629	-0.1%	3.1	2.4	i	-19.2
3	CC(OC(=O)Cc1c[nH]c2ccccc12)C(=O)Nc1ccccc1[N+](=O)[O-] (centres undefined)	2.7	0.655	4.0%	-1.8	3.5	.	6.7
4	CS(=O)(=O)N(Cc1ccccc1)c1ccccc1C(=O)Nc1ccccc1C(=O)NCc1ccco1	2.4	0.722	2.7%	-2.4	11.4	i	3.9
5	N#Cc1nc(Cc2ccccc2)oc1NCCc1ccccc1	9.2	0.728	-1.0%	-2.1	.	.	-0.4
6	O=C1CSC(c2ccccn2)N1c1ccccc1 (centres undefined)	0.3	0.651	4.2%	-0.4	-2.5	i	5.0
7	O=C(CCCOc1ccccc1)Nc1ccc(S(=O)(=O)N2CCOCC2)cc1	1.1	0.752	-6.2%	1.2	.	.	0.7
8	COc1ccc(Cl)cc1NC(=O)CN(C)C(=O)c1n[nH]c2ccccc12	-2.8	0.629	-8.1%	-0.6	-2.5	i	0.3
9	Cc1ccnc(NC(=O)Cn2ccc([N+](=O)[O-])n2)c1	-3.5	0.656	.	-1.1	-2.2	i	4.3
10	O=C(NCCc1nnc2ccc(N3CCCCCC3)nn12)c1ccccc1	9.8	0.734	.	-0.6	-0.8	i	0.7
11	Cc1cc(C(=O)NC2CCCc3c2cnn3-c2ccc(C(C)(C)C)cc2)n[nH]1 (centres undefined)	4.6	0.725	.	4.1	-0.2	i	-1.8
12	CC(C)(C)NC(=O)NC(=O)CSc1nnc(-c2ccccc2F)n1N	-1.1	0.692	9.3%	-0.6	.	.	2.0
13	Cc1ccc(NC(=O)CCS(=O)(=O)c2cccc3nonc23)c(Cl)c1	1.7	0.693	-5.8%	1.1	-3.7	i	4.3
14	CC(C)(C)n1nnnc1C(c1ccccn1)N(Cc1ccccc1)Cc1ccc(Cl)cc1 (centres undefined)	-2.7	0.745	10.1%	-0.6	.	.	0.9
15	O=C(NCCc1c[nH]c2ccccc12)C(=O)NCC1CCCO1 (centres undefined)	0.2	0.68	-6.6%	3.7	-1.7	+	0.0
16	NC(=O)COc1c(-c2ccccc2)oc2ccccc2c1=O	0.0	0.698	-2.5%	-5.4	.	.	-0.2
17	CC[C@@]1(C(=O)OC)N[C@H](CN(C)S(=O)(=O)c2ccccc2)[C@@H]2C(=O)N(Cc3ccccc3)C(=O)[C@@H]21	.	0.678	2.6%	1.2	-0.5	i	1.2
18	Cc1ccc(NC(=O)CCn2c(=O)[nH]c3ccsc3c2=O)cc1F	3.3	0.705	.	-0.1	-1.4	i	2.9
19	CCc1ccc(N=C2NC(=O)/C(=C/c3ccc(OCC(=O)O)c(OC)c3)S2)cc1	?	0.667	0.9%	1.3	-1.6	i	1.1
20	CC1CCCCN1C(=O)COC(=O)c1cc([N+](=O)[O-])ccc1N (centres undefined)	-1.6	.	.	-1.2	0.2	i	.
21	O=C(CSc1nnc(-c2ccccc2NC(=O)c2ccccc2)o1)OC1CCCCC1	.	0.745	0.9%	1.0	.	.	-4.1
22	Cc1ccc(S(=O)(=O)NNc2c3ccccc3nc3ccc(Cl)cc23)cc1	.	.	2.2%	-4.1	6.1	i	.
23	CC1CCCC(NC(=O)CCNC(=O)c2ccc([N+](=O)[O-])cc2)C1C (centres undefined)	-1.0	0.66	.	0.5	-0.9	i	0.0
24	CN(CC(=O)N1CCCCCC1)S(=O)(=O)c1ccccc1	-1.1	0.697	-0.9%	-2.5	-10.4	i	-0.4
25	Cc1ccccc1Cn1ccc(NC(=O)c2cnn3c(C(F)(F)F)cc(-c4ccco4)nc23)n1	0.0	0.705	1.4%&0.1%	1.6	.	.	5.9
26	CC(=O)Oc1ccc(/C=C(\NC(=O)c2cccc(Br)c2)C(=O)Nc2ccc(C(=O)O)cc2)cc1	3.3	0.639	.	1.0	-0.8	i	12.1
27	C[C@@H]1CC=C[C@H]2[C@H]1C(=O)N(Cc1ccccc1)[C@H]2c1ccc(/C=C/c2ccccc2)cc1F	7.3	.	.	4.2	.	i	1.3
28	COc1ccc(C(=O)N2CCN(Cc3nc(CC4CC4)no3)CC2)cc1	-2.0	0.648	3.5%	0.6	2.8	i	1.6
29	CN(C(=O)c1ccc(Br)cc1)C1CCS(=O)(=O)C1 (centres undefined)	3.0	0.632	-3.7%	-3.5	-9.8	i	0.9
30	CC(C)(C)OC(=O)C[C@@H]1C/C=C\C[C@@H](CC(=O)NCCO)C(=O)N[C@H](Cc2c[nH]c3ccccc23)COC1=O	.	.	.	0.5	.	i	-0.3
31	COc1cccc(NC(=S)NNC(=O)Cn2nc(C(F)(F)F)cc2C)c1	-5.8	0.713	-2.2%	7.6	-8.6	i	2.4
32	CNC(=O)/C(C#N)=C/c1c(N2CCN(c3ccc(OC)cc3)CC2)nc2c(C)cccn2c1=O	7.8	0.66	.	-1.1	13.4	i	5.0
33	COc1cccc(NC(=O)CN(c2ccc([N+](=O)[O-])cc2)S(=O)(=O)c2ccccc2)c1	1.9	0.699	?	0.5	6.6	i	4.0
34	c1cc2c3c(cccc3c1)NN=N2	.	.	1.6%	-3.8	3.6	i	.
35	O=C(Cc1ccc(NC(=O)C2CCCN(C(=O)c3ccccc3)C2)cc1)Nc1ccc(C(=O)N2CCOCC2)cc1 (centres undefined)	.	.	-11.9%	3.6	-7.9	i	.
36	CN1/C(=C\C=C2/SC(=S)NC2=O)C(C)(C)c2ccccc21	1.4	0.685	.	-3.9	7.1	i	8.4
37	CN(C)S(=O)(=O)c1cccc(COC(=O)Cc2c(F)cccc2Cl)c1	-0.6	0.677	.	-1.1	-3.3	i	4.9
38	COCCCN(C(=O)Cc1coc2cc(C)c(C)cc12)c1c(N)n(Cc2ccccc2)c(=O)[nH]c1=O	0.7	0.71	5.0%	2.2	2.8	i	1.8
39	CC(C)(C)Cc1c(-c2ccc(C#N)cc2)nc2ccc(Cl)cn12	.	.	6.2%	4.1	7.3	i	.
40	COc1ccccc1C(=O)N/N=C(\C)c1ccc(NC(=O)Cc2ccccc2)cc1	-3.0	.	-5.3%	0.9	-0.8	i	.
41	Nc1nonc1-n1nnc(C(=O)N/N=C/c2ccccc2Br)c1CN1CCCC1	2.0	.	.	0.2	-4.2	i	.
42	CCc1nnc(NC(=O)CCC(=O)N2CCCC2)s1	8.0	0.737	-8.0%	-2.2	.	.	0.6
43	COc1ccc(C(=O)C2CCCN(Cc3cc(Cl)ccc3O)C2)c(OC)c1 (centres undefined)	4.8	0.683	8.1%	-1.0	0.1	i	1.4
44	Cc1ccc(C)c(OCC(=O)NNC(=O)C2CC2)c1	3.9	0.649	2.5%	-5.8	-3.1	i	-1.6
45	CCc1ccc(NC(=O)CN2C(=O)CSC2=O)cc1	-0.3	0.713	.	0.2	.	.	1.7
46	COc1cc(/C=C/C(=O)OCC(=O)N2CC3(C)CC2CC(C)(C)C3)ccc1O (centres undefined)	-1.6	0.714	.	-0.3	.	.	0.8
47	COc1ccccc1CCC(=O)NC1CCCN(c2ccc(C(F)(F)F)cn2)C1 (centres undefined)	0.7	0.693	2.9%	0.9	-0.9	i	-4.2
48	O=C(Nc1nc2ccc(F)cc2s1)C1=NN(c2ccccc2)C(=O)CC1	-0.9	0.727	.	0.1	-2.1	i	0.0
49	CCOC(=O)C1(Cc2cccc(OC)c2)CCCN(C(=O)c2ccc(OC)o2)C1 (centres undefined)	?	0.685	.	6.9	3.6	i	3.2
50	COc1ccc(-c2csc(NC(=O)c3cccs3)c2C(=O)O)cc1OC	-3.8	0.701	.	-0.7	-3.7	i	4.4
51	COc1ccc2sc(-c3ccc(S(C)(=O)=O)cc3)c(-c3ccc(C(N)=O)cc3)c2c1	.	0.693	.	3.4	-7.3	i	-3.8
52	COc1ccc(Oc2cc(Cl)nc(N)n2)cc1	-1.8	0.664	-5.8%	1.8	-2.1	i	0.9
53	CCCCNC(=O)C1C(c2ccc(OC)cc2)=Nc2ccccc2N1C(=O)c1ccncc1 (centres undefined)	.	.	.	0.0	2.9	i	.
54	CCN(C(=O)CSc1nnc(-c2ccc(OC(F)F)cc2)n1N)C1CCS(=O)(=O)C1 (centres undefined)	-1.5	0.599	7.7%	4.6	0.8	i	1.1
55	CC1CCCC(NC(=O)CSc2nccn2C)C1C (centres undefined)	0.9	0.758	1.0%	-1.2	.	.	-3.7
56	Cc1ccc(-c2c(C)sc(=NC(=O)c3ccco3)n2C)cc1	6.1	0.675	-6.9%	-0.2	.	.	-17.7
57	COCCSc1nnc(NC(=O)C2CC(=O)N(c3ccc(C)cc3)C2)s1 (centres undefined)	10.0	0.657	.	-1.7	-3.0	i	2.8
58	Cc1ccc2cc(CN(Cc3nnnn3C3CCCC3)C3CCCCC3)c(=O)[nH]c2c1C	-0.6	0.681	7.1%	-1.7	-12.4	i	-0.6
59	N#Cc1c(N)nc2c(c1-c1ccncc1)CCCCCC2	4.6	0.715	-7.6%	2.9	.	.	-18.9
60	N#CC(c1ccc(Cl)cc1)c1ccc(Cl)nn1 (centres undefined)	3.1	0.645	-1.5%	0.1	.	.	0.0

Further compounds:
entry	SMILES	RanGTP-Imp inh	Ecoli growth	Vif A3G	HNF4A DNA FP	MLL AF4-AF9 inh	FGF22 binding	UCH37 DUB inh
61	COC(=O)CCC(=O)N1CCc2cc(S(=O)(=O)N3CCc4ccccc43)ccc21	5.4	0.696	3.7%	2.9	.	.	1.6
62	CCC1(c2ccccc2)NC(=O)N(CC(=O)Nc2cccc(S(=O)(=O)N3CCCC3)c2)C1=O (centres undefined)	.	0.637	1.2%	2.3	2.6	i	1.5
63	COc1ccc(C(=O)N2CCCC(c3ccccc3)C2)cc1 (centres undefined)	.	0.668	-5.3%	-0.1	.	.	0.5
64	Cc1ccc(OCc2ccc(C(=O)NN)o2)cc1C	0.0	0.625	70.7%	-1.2	-1.5	i	1.3
65	O=C(O)C1CSCN1S(=O)(=O)c1cccc2nsnc12 (centres undefined)	?	0.698	-0.3%	-1.1	.	.	5.5
66	CCCCN1C(=O)C(=O)N(CC(=O)Nc2sc(C)c(C)c2C(=O)OC)C1=O	.	0.704	1.9%	2.1	-0.2	i	2.5
67	Cc1onc(-c2ccccc2)c1NC(=O)Nc1c(-c2ccccc2)noc1C	8.5	0.67	-0.2%	5.5	0.1	i	3.9
68	CCOc1ccc(NC(=O)CN(c2ccc(OC)cc2)S(C)(=O)=O)cc1	-1.2	0.75	3.5%	1.8	.	.	-0.9
69	Cc1[nH]n(-c2ccc(Cl)cc2)c(=O)c1/C=N/n1c(C)nc2ccccc2c1=O	-1.3	.	10.3%	0.6	.	.	.
70	CCN(CC)C(=O)c1ccc(/C=C/c2c[nH]c3ccccc23)[n+](C)c1	-108.7	0.718	.	125.7	.	.	28.9*
71	CCOc1ccc(NC(=O)C(c2ccccn2)N(C(=O)CCl)c2ccc(OCC)cc2)cc1 (centres undefined)	.	0.672	?	1.2	.	.	2.9
72	COc1ccc(C2=C(C=C(C#N)C#N)C(c3ccccc3C)c3ccccc3O2)cc1OC (centres undefined)	-1.1	0.66	16.9%	-6.6	12.3	i	3.2
73	O=c1[nH]cnc2scc(-c3ccccc3)c12	-2.9	0.67	8.0%	3.1	.	.	0.6
